HSD17B inh: HSD17B dehydrogenase inhibition; recombinant HSD17B10, NADH fluorescence kinetic; many of its hits are not listed in these tables; Potency, µM (titrated, usually from 57.1 µM), without a hit: top-dose activity change, negative = inhibition, most hits filed as inhibitors; hit rate 7.6% among 75,000; AID 893; active means well fitted inhibition curve with a large enough effect; inconclusive means small, poorly fitted or top-dose-only effect; inactive means no such curve, though single readings can be large or run the other way;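 further: the protocol describes HADH2 (HSD17B10) and not the HSD17B4 of the title; nearly all actives have a fitted effect of over 70% in size; most hits overshoot -100% by far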
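20 nM HADH2, pH 9.0 Tris/Tween; cpd preinc 15 min RT; start w/ 1 mM NAD+ + 90 uM b-hydroxybutyryl-CoA; kinetic fluor ex360/em450 q30s x 4 min; delta last-first.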
Starred values were filed as active, the others as inactive; i = inactive; ? = inconclusive; [ ] = remark or other dose. On the % scale 0 is the no-effect control and ±100 the full control effect; potency means the concentration at half of the fitted maximal effect.

SMILES	HSD17B inh
Cc1ccc(CCP(=O)(O)CN2CCCCC2)cn1	5.9%
CCOC(=O)c1sc(NC(=O)c2cc3c(C)nn(-c4ccccc4)c3s2)nc1C	5.4%
CCN(CCNC(=O)C1CC(=O)N(CCc2ccccc2)C1)c1ccccc1 (stereo not drawn)	6.2%
CN1CC(=O)N(CC(=O)NCc2ccc(F)cc2)c2ccccc2C1=O	1.9%
CC(C)CCNC(=O)CCCOc1cc(=O)n(C)c2ccccc12	-1.8%
CCOC(=O)c1c(C)[nH]c(C(=O)COC(=O)CNC(=O)C2CCCCC2)c1C	8.3%
CCOC(=O)N1CCN(C(=O)C2CCCN(S(=O)(=O)c3cc(C)ccc3OC)C2)CC1 (stereo not drawn)	4.2%
CCC(C)(C(=O)NC1CCCCC1)N(C(=O)C1CCC(=O)N1)c1ccc(C)cc1 (stereo not drawn)	1.9%
CC1CCCCN1CCNC(=O)c1cc2c(-c3ccccc3F)nn(C)c2s1 (stereo not drawn)	31.6µM*
CCOC(=O)c1c(O)[nH]c(=O)c(CC)c1C	5.6%[11.4 µM]
CCOCC(=O)Nc1nc2c(s1)C(=O)CC(C)(C)C2	-7.7%
COc1ccccc1OCC(=O)Nc1ccc(O)cc1C(=O)O	?
Cc1cc(S(=O)(=O)N2CCCC2)ccc1OCC(=O)N1CCOCC1	5.0%
CCOC(=O)/C(C#N)=C1/C=Nc2ccccc2N1	-4.3%
CCOC(=O)C(NC(=O)CCC(=O)Nc1ccc(S(N)(=O)=O)cc1)C(O)c1ccccc1 (stereo not drawn)	-4.5%
CC(C)n1c(SCc2ccc(Cl)cc2)nc2c1c(=O)[nH]c(=O)n2C	-6.3%
N[C@@H](Cc1ccccc1)c1nnc(SCc2ccccc2Cl)o1	3.9%
O=C(OCc1nc2ccccc2c(=O)[nH]1)c1cccs1	-14.9%
Cc1ccc(S(=O)(=O)N(CC(=O)N2CCOCC2)C2CCCCC2)cc1	-4.0%
CCCCc1c(C)nn(-c2nnc3c4ccccc4n(CC)c3n2)c1C	-5.9%
N#Cc1ccc(CN2CC[C@@]3(CCCN(C(=O)c4cccc(F)c4)C3)C2)cc1	5.9%
COc1cccc(-c2cncnc2NCCc2c[nH]c3ccc(OC)cc23)c1	-21.0%
CS(=O)(=O)N(CC(=O)O)c1cccc(Cl)c1	4.8%
Fc1ccc(C2=Nn3c(nnc3-c3n[nH]c4c3CCC4)SC2)cc1	-2.4%
Cc1cc(C)c(S(=O)(=O)N(C)CC(N)=O)c(C)c1	-3.3%
CC1(C)CC2C1CCC1(C)OC2(C)CCC1O (stereo not drawn)	-9.8%
COc1ccc(C(=O)OC(COc2ccccc2)Cn2ccnc2)cc1 (stereo not drawn)	-2.8%
CC1(C)Nc2ccccc2N(CCC(=O)N2CCOCC2)C1=O	-0.7%
Cc1c(C)c2c(c(C)c1O)CC[C@@](C)(C(=O)O)O2	3.7%[25.6 µM]
O=C(Nc1ccc(Cl)cn1)c1cccnc1	7.0%
O=C(c1cccs1)N1CCN(Cc2cccnc2)CC1	4.0%
O=C(CCCN1C(=O)c2ccccc2C1=O)Nc1ccccn1	-0.4%
CC(C)(C)NC(=O)NC(=O)COC(=O)CNC(=O)c1cccc(F)c1	9.7%
CC(=O)c1cccc(NC(=O)CN(c2cccc(F)c2)S(C)(=O)=O)c1	-0.9%
CN(C)c1oc(-c2ccccc2F)nc1C#N	25.1µM*
COC(=O)c1cc(-c2cccc(OC)c2)on1	11.5%
N#Cc1cnn(CC2CCCCC2)c1N	-5.8%
CN(C)Cc1ccccc1-c1ccc2ncnc(N(C)Cc3ccco3)c2c1	-24.4%
COC(=O)c1ccc(CSc2ncnc3c2nnn3-c2ccc(F)cc2)o1	-0.4%
COc1ccc(CN2CCN(S(=O)(=O)c3ccc(F)cc3)CC2)cc1OC	3.1%
CCOC(=O)C1C(=O)CC(C)(O)C(C(=O)OCC)C1c1ccc(Br)o1 (stereo not drawn)	1.2%
O=C(c1cccs1)N1CCN(S(=O)(=O)N2CCOCC2)CC1	-4.4%
O=C(Cn1cnc2c(cnn2-c2ccc(F)cc2)c1=O)NCc1ccco1	-0.9%
Cc1ccc(-c2csc(NC(=O)c3ccno3)n2)cc1	25.1µM*
CCCCNC(=O)C(c1ccc(OCC(=O)OC)c(C(=O)OC)c1)N(CCc1ccccn1)C(=O)CCCCCN1C(=O)NC(c2ccc(-c3ccccc3)cc2)C(C(=O)OCc2ccccc2)=C1C (stereo not drawn)	-8.4%
Cn1cc(SCC(=O)NCc2ccc3c(c2)OCO3)c2ccccc21	5.4%
CCCCCCn1c(CN2CCN(C(=O)c3ccco3)CC2)nc2c1c(=O)n(C)c(=O)n2C	-17.7%
Cc1nnc(SCC(N)=O)n1CC1CCCO1 (stereo not drawn)	16.0%
C[Si](C)(c1ccc(C(=O)O)cc1)c1ccc(C(=O)O)cc1	-8.4%[11.4 µM]
CC(C)Cc1nc2oc3c(=O)[nH]cnc3c2c2c1CCC2	-23.4%

An excerpt from above in order of heavy-atom count, highest first.
SMILES	HSD17B inh
CCCCNC(=O)C(c1ccc(OCC(=O)OC)c(C(=O)OC)c1)N(CCc1ccccn1)C(=O)CCCCCN1C(=O)NC(c2ccc(-c3ccccc3)cc2)C(C(=O)OCc2ccccc2)=C1C (stereo not drawn)	-8.4%
CCOC(=O)C1C(=O)CC(C)(O)C(C(=O)OCC)C1c1ccc(Br)o1 (stereo not drawn)	1.2%
Cc1ccc(-c2csc(NC(=O)c3ccno3)n2)cc1	25.1µM*

(further entries)
SMILES	HSD17B inh
O=C(NCCCN1CCN(c2ccccc2F)CC1)C1CCN(S(=O)(=O)N2CCOCC2)CC1	8.8%
CCC(c1nnc(SCC(=O)Nc2nnc(-c3ccccc3)o2)o1)N(C)C (stereo not drawn)	-12.1%
O=C(O)CCC(=O)NCC1OCCc2ccccc21 (stereo not drawn)	10.4%
CC1CC2(CC(C)(C(=O)CSc3nc4ccccc4s3)OC2=O)C(=O)O1 (stereo not drawn)	-7.0%
O=c1[nH]cnc2c1nc(Cl)n2C1OC(CO)C(O)C1O (stereo not drawn)	2.8%
CN(Cc1ccccc1)Cc1nc2c(c(=O)n(C)c(=O)n2C)n1Cc1ccc(F)cc1	-4.2%
CCCCCCOc1ccc(C(CC(=O)O)C(N)=O)cc1 (stereo not drawn)	7.2%
COc1cccc(C(=O)N2CCN(c3ncccn3)CC2)c1	-9.5%
CC(=O)c1ccc(O)c(CN(C2CCCCC2)C2CCCCC2)c1O	8.2%[11.4 µM]
Cc1cc2nc(NC3=NCN(CCCN4CCOCC4)CN3)nc(C)c2cc1C	8.4%

Exported field by field: part of the list above
mol: COc1cccc(C(=O)N2CCN(c3ncccn3)CC2)c1
  HSD17B inh = -9.5%

mol: CN(Cc1ccccc1)Cc1nc2c(c(=O)n(C)c(=O)n2C)n1Cc1ccc(F)cc1
  HSD17B inh = -4.2%

New compounds follow.
SMILES	HSD17B inh
CC(=O)N1[C@H](C)C=C[C@]1(Cc1ccccc1)C(=O)NCc1ccccn1	-2.6%
Cc1ccc(S(=O)(=O)N[C@@H](C)C(=O)N2CCC(C(=O)N3CCC[C@H]3C(=O)O)CC2)cc1	2.4%
CC1=C(/C=C/C(C)=C/C=C/C(C)=C/C=C/C=C(C)/C=C/C=C(C)/C=C/C2=C(C)C(=O)CCC2(C)C)C(C)(C)CCC1=O	-11.6%
O=C1CN(Cc2ccccc2)C(=NCc2ccco2)S1	-14.3%
O=C(Nc1ccccc1)N(CCCN1CCOCC1)Cc1cc2cc3c(cc2[nH]c1=O)OCCO3	25.1µM*
COc1cccc(NS(=O)(=O)c2ccc(NC(C)=O)cc2)c1	6.7%
COc1ccc(COn2c(=O)c(C)[n+]([O-])c3ccccc32)cc1OC	-1.4%
COc1cccc(CNc2ccc3c(c2)ncn3C(C)C)c1OC	?
O=C(O)c1oc2ccccc2c1-n1cccc1	4.6%
COc1cccc(Cn2c(Oc3cccc(C)c3)nc3c2c(=O)n(C)c(=O)n3C)c1	-3.1%
COc1ccccc1OCCOc1ccc(/C=N/n2cnnc2)cc1	1.4%
Cc1c(C(=O)N2CCc3ccccc3C2)sc2nc(-c3ccccc3)cn12	-1.2%
CCOC(=O)C1CCCN(c2c(N3CCN(c4ccccn4)CC3)c(=O)c2=O)C1 (stereo not drawn)	3.4%
FC(F)(F)c1nnc2ccc(N3CCCCCC3)nn12	6.5%
Oc1ccccc1CN1CCCN(Cc2ccccc2O)C1	-21.7%
COc1ccc(-n2c(COc3ccccc3)nnc2SCC(N)=O)cc1	1.3%
Cc1ccc(S(=O)(=O)Cn2nnnc2CN2CCCC3(CCCCC3)C2)cc1	4.3%
CCCc1nnc2n1N=C(c1ccc(-c3cc(Cl)ccc3Cl)o1)CS2	-6.6%
C=CCNc1ncnc2c1[nH]c1ccc(C)cc12	31.6µM*
CC(=O)c1c(C)[nH]c(C(=O)NCCC2=CCCCC2)c1C	1.0%
CCN1CCN(c2cc(=O)n(-c3cc(Cl)ccc3C)c(=O)[nH]2)CC1	7.0%
c1ccc(OCc2nn3c(-c4ccncc4)nnc3s2)cc1	0.4%
[N-]=[N+]=NC[C@@H]1O[C@@H](n2cnc3c(N)ncnc32)[C@@H]2O[C@@H]21	-2.1%[11.4 µM]
COC(=O)C(C(=O)Nc1ccc(OC)cc1)C1CCCCCC1 (stereo not drawn)	4.7%
O=C(CCNC(=O)c1ccc(Br)o1)NCc1ccccc1Cl	1.6%
O=C(Nc1cccnc1)c1cccc(NC(=O)c2ccco2)c1	4.3%
CCn1c(=O)c(C(=O)CN2CCCc3ccccc32)c(N)n(Cc2ccccc2)c1=O	-1.9%
Cn1c(C(=O)Nc2ccc3c(c2)OCO3)cc2c(=O)n(C)c3ccccc3c21	i
CCOC(=O)N1CCN(C(=O)c2cc(-n3cnnc3)ccc2Cl)CC1	1.1%
O=C(c1ccco1)N1CCN(C(c2cccs2)c2nnnn2C2CCCCC2)CC1 (stereo not drawn)	8.2%

Given with bars between the fields: entries from further up.
Molecule | HSD17B inh
O=C(CCNC(=O)c1ccc(Br)o1)NCc1ccccc1Cl | 1.6%
O=C(Nc1cccnc1)c1cccc(NC(=O)c2ccco2)c1 | 4.3%

The list goes on.
SMILES	HSD17B inh
O=c1nc(N2CCCCC2)nc2n1CCO2	7.4%
COc1ccccc1C1NC(=O)NC(C)=C1C(=O)Nc1cccc(C)c1C (stereo not drawn)	?
Cc1c(-n2cc(C(=O)c3ccccc3O)cc(C#N)c2=O)c(=O)n(-c2ccccc2)n1C	-6.7%
CN1C(=O)CSc2ccc(NC(=O)NCc3ccco3)cc21	-4.4%
Cc1cc(C)n(CC(=O)NCc2cc(-c3nn(C)c(=O)c4ccccc34)ccc2C)n1	10.7%
O=C(c1ccccc1)c1c[nH]c2cc3c(cc2c1=O)OCCO3	0.2%
CN1CCN(c2ncnc3c2sc2nc(N4CCCC4)c4c(c23)CC(C)(C)OC4)CC1	2.6%
Cc1nc(NCc2ccccc2)c2nc(-c3ccccc3)n(CC3CCN(C)CC3)c2n1	20µM*
Cc1cccc(C)c1NC1=NC(C)(C)N=C(N)N1	1.1%
CC(C)Cn1c(N)c(C(=O)COC(=O)c2ccncc2)c(=O)n(C)c1=O	10.8%
COc1cccc(Nc2nnc(SCC(=O)N3CC(C)OC(C)C3)s2)c1 (stereo not drawn)	-1.2%
Fc1ccc(CN2CCCCCC2)c(F)c1	5.0%
c1ccc2nc(N3CCOCC3)c(N3CCOCC3)nc2c1	1.2%
COc1ccc(S(=O)(=O)N2CCCC2C(=O)Nc2ccc(C(C)=O)cc2)cc1 (stereo not drawn)	-13.7%
O=C(OCc1cc(=O)n2c(n1)sc1ccccc12)c1ccc2c(=O)n3c(nc2c1)CCC3	?
COC(=O)c1cc(Cc2ccc(N)c(C(=O)OC)c2)ccc1N	25.1µM*
Cn1c(C(=O)N2CCC(C(=O)N3CCN(Cc4ccc5c(c4)OCO5)CC3)CC2)cc2sccc21	4.1%
CCOC(=O)C(NC(=O)CC)(Nc1ccc(S(=O)(=O)Nc2cc(C)on2)cc1)C(F)(F)F (stereo not drawn)	3.0%
COCc1cc(=O)n2[nH]c(C)nc2n1	-1.7%
O=C(Nc1ccncc1)c1c(F)cccc1F	-13.7%
COCCn1c(=O)cnc2cnc(Nc3ccccc3)nc21	7.1%
CS(=O)(=O)N1CCC2(CCCN(c3ccccn3)C2)CC1	25.1µM*
O=C(O)C(S)[C@@H](S)C(=O)O (stereo partly drawn)	10µM*
CCCCn1c(CN2CCN(C)CC2)nc2ccccc21	10.8%
COC(=O)c1ccc(NS(=O)(=O)c2cc(C)ccc2OC)cc1	1.8%
CCCCc1ccc(-c2nc(-c3ccncc3)no2)cc1	6.8%
CS(=O)(=O)Nc1ccccc1C(=O)O	31.6µM*
COc1ccc(C2C3=C(CC(C)(C)CC3=O)Oc3ncn4nc(-c5cccnc5)nc4c32)cc1 (stereo not drawn)	8.4%
CN1c2cc3c(cc2N=C(c2ccc(C(=O)O)cc2)c2ccccc21)C(C)(C)CCC3(C)C	-81.8%
CCCc1ccc2c(N)c(C#N)sc2n1	?
COc1ccc(CNC(=O)C2CCN(S(=O)(=O)c3cccc4cccnc34)CC2)cc1	-0.9%
COc1cccc(-c2nccc(-n3ccnc3)n2)c1	-9.1%
Cc1c(C(=O)NCc2cccs2)oc2ccc(S(=O)(=O)N3CCOCC3)cc12	3.0%
CCOc1ccccc1N1CCN(C(=O)c2cccc(-c3ccc(O)cc3)c2)CC1	-0.8%
CC(NC(=O)Nc1ccccc1)C(c1cccs1)N1CCOCC1 (stereo not drawn)	-2.0%
Fc1ccc(Nc2ncnc3ccc(-c4ccoc4)cc23)cc1	-12.0%
FC(F)(F)c1ccccc1-c1nccc(NCCN2CCOCC2)n1	-5.4%
Cn1c(=O)[nH]c(=O)c2c1nc(CN1CCOCC1)n2Cc1ccccc1	7.3%
COc1ccc(OC)c(C2=NOC(C(=O)NCC3CCCO3)C2)c1 (stereo not drawn)	?

An excerpt; the hit share may differ from the screen's.
